VDR inh – vitamin D3 receptor (human) inhibition; 400,000 tested, 0.93% active; VDR-SRC2-3 peptide fluorescence polarization, 2 h; AID 504847; Potency, µM, for inactives: max response, negative = inhibition, most hits filed as inhibitors; active = well fitted inhibition curve with a large enough effect; inconclusive = small, poorly fitted or top-dose-only effect, or another doubt; inactive = no such curve, though single readings can be large or run the other way; note: series mostly up to about 120 µM
Target sequence (P11473 whole entry, looked up): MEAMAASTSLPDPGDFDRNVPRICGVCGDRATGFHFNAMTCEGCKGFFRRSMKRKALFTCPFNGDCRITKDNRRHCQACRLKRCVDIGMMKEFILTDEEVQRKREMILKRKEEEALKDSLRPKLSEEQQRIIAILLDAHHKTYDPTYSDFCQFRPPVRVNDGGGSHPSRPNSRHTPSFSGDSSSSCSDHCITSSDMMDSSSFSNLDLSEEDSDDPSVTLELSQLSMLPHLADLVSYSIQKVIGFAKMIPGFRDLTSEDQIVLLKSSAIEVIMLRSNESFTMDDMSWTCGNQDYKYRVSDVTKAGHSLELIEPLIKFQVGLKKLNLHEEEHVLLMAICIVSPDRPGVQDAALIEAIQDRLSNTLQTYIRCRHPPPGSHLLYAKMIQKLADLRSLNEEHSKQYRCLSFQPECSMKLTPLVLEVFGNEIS
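VDR–SRC2-3 interaction, FP format. Cmpds 23 nl via pintool, brief spin, 2 h ambient incubation.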
* = called active by the depositor; ? = inconclusive; & = joins results of further samples. % is set by controls: 0 for no effect and ±100 for the full control effect; potency is the fitted concentration of half-maximal effect. Some of the compounds tested; rates above refer to the full screens.

SMILES	VDR inh
COc1ccc(OC)c(NC(=O)c2nnn(CC(=O)Nc3ccc4c(c3)OCO4)c2N)c1	-9%
CC(C(=O)Nc1ccc(Cl)cc1)N1C(=O)NC2(CCCC2)C1=O (stereo not given)	-11%
CCSc1nnc(Cc2cc(=O)[nH]c(=O)[nH]2)n1-c1cc(C)ccc1C	-7%
CC(=O)Nc1ccc(S(=O)(=O)N(C)CC(=O)NC2CCCCCCC2)cc1	-10%
CCN1CCN(c2oc(-c3ccc(COc4ccccc4C)o3)nc2C#N)CC1	16%
O=C(CN1C(=O)NC2(CCCCCC2)C1=O)NCCc1ccc(F)cc1	8%
Cc1nc(N)c(S(=O)(=O)c2ccccc2)c(Nc2ccc(Br)cc2)n1	3%
O=C(NCCCN1CCOCC1)c1c(O)c2ccccc2[nH]c1=O	3%
Cc1ccccc1C(=O)N1CCC(C(=O)OCc2nc(N)nc(Nc3ccccc3)n2)CC1	-2%
Cc1cc(Cl)cc2sc(NC(=O)C3CC3)nc12	-8%
CCc1ccc2nc(N(Cc3cccnc3)C(=O)c3cccs3)sc2c1	20%
COc1cc(/C=N/NC(=O)CCOc2ccccc2C)cc(Br)c1O	16%
COc1ccc(S(=O)(=O)NCc2ccc3c(c2)OCO3)cc1OC	7%
CCOc1ncccc1C(=O)OCC(=O)NCCc1ccc(OC)cc1	6%
Cc1ccc(C(C)(C)C)c(OCCCCN2CCCC2)c1	-8%
COC(=O)c1cc(=O)n2c(-c3ccc(OC)cc3)csc2n1	10%
Cc1ccc(C)c(OCC(=O)N/N=C\c2cccn2C)c1	5%
COc1ccc(-c2cccc(C(=O)Nc3cccc(C(=O)O)c3)c2)cc1	-23%
Cc1cc(C)n(-c2nc(-c3ccccc3)cs2)n1	2%
Cc1ccc(N(Cc2cc3ccccc3[nH]c2=O)C(=O)c2cccs2)cc1	-20%
CN(C)/C=C(\C#N)S(=O)(=O)c1ccc(Cl)cc1	4%
C=CCOc1ccc(/C=C/C(=O)OCC(=O)NCCCc2ccccc2)cc1	1%
Cc1ccc(S(=O)(=O)Nc2ccc(N3CCN(C)CC3)nc2)cc1	0%
N#Cc1cc(Oc2cccnc2)c(Oc2cccnc2)cc1C#N	0%
C=CCN1C(=O)CSc2ccc(C(=O)NC(C)c3ccccc3)cc21 (stereo not given)	-10%

Next entries
SMILES	VDR inh
CCN1CCN(CCCNC(=O)CN2C(=O)c3cccnc3Oc3ccc(Cl)cc32)CC1	-2%
C/C(=N\NC(=O)CCc1c(C)n[nH]c1C)c1ccc([N+](=O)[O-])cc1	-10%
COC(=O)c1ccc(NC(=O)C(C)N2C(=O)c3ccccc3C2=O)cc1 (stereo not given)	10%
COc1cccc(OCc2cc(/C=N/n3cncn3)ccc2OC)c1	-8%
COc1cc(NS(C)(=O)=O)cc(OC)c1OC	-8%
COc1ccc(N(C)S(=O)(=O)c2cccc(C(=O)Nc3cc(OC)ccc3OC)c2)cc1	3%
Cc1cc(C)c(C(=O)O)c(Cl)n1	5%
Cc1oc(-c2ccccc2F)nc1CSCC(=O)NC1CCC(C)CC1 (stereo not given)	-4%
N#C/C(=C\c1cccc2ccccc12)c1nn(-c2ccccc2)c(N)c1C#N	6%
CC(=O)Nc1ccc(NC(=O)Cn2cnc3c(cnn3C(C)(C)C)c2=O)cc1	12%
O=c1[nH]c(/C=C\c2cccc(F)c2)nc(O)c1[N+](=O)[O-]	40µM*
COc1cc(OC)cc(C(=O)NC(=S)N2CCCCC2c2cccnc2)c1 (stereo not given)	-13%
COc1cccc(NC(=O)CSc2nc3ccc(NC(=O)c4ccco4)cc3s2)c1	15%
Clc1ccc(-c2cc(C3CCNCC3)[nH]n2)c(Cl)c1	2%
O=C(Cc1ccccc1)NNC1CC(=O)N(c2ccccc2)C1=O (stereo not given)	-13%
Cc1ccc(NC(=O)CNc2cccc(S(=O)(=O)N3CCCCC3)c2)cc1F	3%
Cc1oc2c(c1C(=O)NCCO)CCCC2	-3%
Cc1ccc(NC(=O)Cn2c(=O)n(Cc3ccccc3)c(=O)c3c(C)c(C)sc32)c(C)c1	14%
CCc1ccc2c(c1)cc(C)c1nnc(SCC(=O)Nc3cc(OC)c(OC)cc3C(=O)O)n12	-4%
CCOc1cc(/C=C(/C#N)c2nc3ccccc3[nH]2)ccc1OCc1ccc(C(=O)O)o1	-10%
N#Cc1ccc(CSc2nnc(NC(=O)C3CCCO3)s2)cc1 (stereo not given)	-6%
Cc1cccc(NC(=O)CN2C(=O)S/C(=C\c3cc(C)n(C)c3C)C2=O)c1	-11%
NS(=O)(=O)c1ccc(CCNC(=O)c2ccc3ccccc3n2)cc1	-9%
CCOc1ccc2nc(-c3ccccc3)nc(SCC(=O)Nc3ncc(C)s3)c2c1	3%
CCN(CC)C(=O)CN(C#N)c1nc(C)cc(C)n1	-3%

More records follow:
SMILES	VDR inh
O=C(C[n+]1cccc(/C=N/O)c1)N(Cc1ccccc1)Cc1ccccc1	-2%
Cc1cccc2cc(CN(CC3CCCO3)S(=O)(=O)c3ccccc3)c(=O)[nH]c12 (stereo not given)	-12%
CN1c2c(nc(N)[nH]c2=O)NCC1CNc1ccc(C(=O)NC(CCC(=O)O)C(=O)O)cc1 (stereo not given)	-1%
O=C(NCc1ccc(F)cc1)C1CCCN1C(=O)Nc1ccc(Cl)cc1 (stereo not given)	-19%
Cc1cc(NC(=O)CSc2nnc(NCc3ccccc3)s2)no1	-8%
COc1cccc(NCc2nnc(SCC(=O)NC3CCS(=O)(=O)C3)n2C2CCCCC2)c1 (stereo not given)	-9%
O=C(NCC1CCCO1)C1CCCN(S(=O)(=O)c2ccc(F)cc2)C1 (stereo not given)	-3%
C=CCN(c1ccccc1OC)S(=O)(=O)c1ccc(Cl)c(C(=O)Nc2ccc(N3CCOCC3)cc2)c1	19%
CCC(C)[C@H](NC(=O)C1CC(=O)N(c2ccc(OC)cc2)C1)C(=O)N1CCCCC1 (stereo not given in full)	-10%
O=C(Oc1ccc(=O)n(-c2ccccc2)n1)c1cccc(Cl)c1	-16%
Cc1cccn2cc(CCNC(=O)c3ccco3)nc12	-8%
CC(C)(C)c1ccc(Oc2ccc(NC(=O)CCCC(=O)O)cn2)cc1	11%
O=C(CSc1nnc(-c2ccncc2)o1)Nc1cccc(F)c1	-1%
O=C(O)c1cccc(-c2noc(-c3cccc(Cl)c3)n2)c1	2%
CC[C@]1(c2cccc(C)c2)C(=O)N(C(=O)OC)N1C(=O)OC	?
O=C(Nc1cccc(NC(=O)c2ccc(Br)o2)c1)c1ccccc1	13%&-6%
Cc1cccc(N=Cc2c(O)cc(C)oc2=O)c1	-9%
COc1ccc(NC(=O)N(C)C[C@H]2Oc3ccc(NC(=O)Nc4ccc5c(c4)OCO5)cc3C(=O)N([C@H](C)CO)C[C@@H]2C)cc1	-6%
c1ccc(Oc2ncnc3oc(-c4ccccc4)cc23)cc1	7%
Cc1cccc(OCCCCNCc2ccccc2)c1	-1%
Cc1nc2cc(S(=O)(=O)N3CCC(C(=O)O)CC3)ccc2n1C1CCCC1	4%
Cc1ccc(C(=O)COC(=O)CNC(=O)C(c2ccccc2)c2ccccc2)cc1[N+](=O)[O-]	13%
NS(=O)(=O)c1ccc(NC(=O)/C=C/c2cn(-c3ccccc3)nc2-c2cccc(Cl)c2)cc1	7%
CSCC(O)Cn1ncc2ccccc2c1=O (stereo not given)	-9%
Cc1ccc(S(=O)(=O)NNC(=O)c2sc(=S)n(C)c2C)cc1	10%

Reformatted with values ahead of the structure: part of the list above
VDR inh	SMILES
-11%	CC(C(=O)Nc1ccc(Cl)cc1)N1C(=O)NC2(CCCC2)C1=O (stereo not given)
2%	O=C(O)c1cccc(-c2noc(-c3cccc(Cl)c3)n2)c1

Other structures follow.
SMILES	VDR inh
O=C(O)CCSc1nnc(-c2ccc(Cl)cc2Cl)o1	7%
CCOC(=O)c1cccc(NS(=O)(=O)c2cn(C)c(C)n2)c1	13%
C=CCNC(=O)/C(C#N)=C/c1c(N(Cc2ccccc2)Cc2ccccc2)nc2ccccn2c1=O	1%
O=C1CCCc2c1nc(-c1ccco1)n2O	4%
Cc1cc(C)n2nc(NCc3ccccc3Cl)nc2n1	20%
Cc1ccc(S(=O)(=O)N2CCCOC2CNC(=O)C(=O)NCc2ccccc2C)cc1 (stereo not given)	-2%
CCn1cnc2c1c(=O)n(CC(=O)N1CCc3ccccc31)c(=O)n2Cc1ccccc1	-3%
CCCCN1CC(=O)N2[C@H]3c4cc(Cl)ccc4OC[C@@H]3[C@H](C(=O)OCC)[C@]2(C)C1=O	3%
CC(C)Oc1ccc2nnnn2n1	0%
CC(=O)Oc1ccc(C(=O)c2ccccc2)c(OC(C)=O)c1	-15%
O=C(CN1CCN(S(=O)(=O)N2CCCCC2)CC1)Nc1cc(Cl)cc(Cl)c1	-22%
CCCNC(=O)Nc1ccccc1C(=O)Nc1ccc(OC)cc1	9%
COC(=O)c1sccc1NC(=O)c1ccc(OC)cc1OC	-37%
N=C1/C(=C\c2ccc(-c3cccc(C(=O)O)c3)o2)C(=O)N=C2SC=C(c3ccccc3)N12	-15%
CCCCn1c(N)c(N(CC(C)C)C(=O)c2ccc(F)c(S(=O)(=O)N3CCOCC3)c2)c(=O)[nH]c1=O	-11%
Fc1ccccc1N1CC(c2ccccc2)C(c2cccs2)=N1 (stereo not given)	18%
CC1SCC(=NOCc2c(Cl)cccc2Cl)CS1 (stereo not given)	11%
CCN(CC)CCCNC(=O)c1ccc(Cn2c(=O)[nH]c3cc(OC)c(OC)cc3c2=O)cc1	-19%
COc1ccc(CCNC(=O)CSc2nccc(=O)[nH]2)cc1OC	-10%
CCCCN1C(=O)C(=O)c2cc(Cl)ccc21	?
Cc1c(C(=O)N2c3ccccc3Sc3ccccc32)cccc1[N+](=O)[O-]	2%
Nc1ccc(Oc2ccc(F)cc2)nc1	-12%
COC(=O)c1ccc(C2CC(=O)Nc3c2c(C)nn3-c2nc(C)cc(C)n2)cc1 (stereo not given)	-1%
N#Cc1cccc(S(=O)(=O)NCC(=O)NCCCc2ccccc2)c1	17%
COc1ccccc1NC(=O)COC(=O)c1[nH]c(=O)[nH]c(=O)c1N	-23%

An excerpt of these results, with values ahead of the structure:
VDR inh	Molecule
-8%	Cc1cccn2cc(CCNC(=O)c3ccco3)nc12
11%	CC(C)(C)c1ccc(Oc2ccc(NC(=O)CCCC(=O)O)cn2)cc1
-1%	O=C(CSc1nnc(-c2ccncc2)o1)Nc1cccc(F)c1
2%	O=C(O)c1cccc(-c2noc(-c3cccc(Cl)c3)n2)c1
?	CC[C@]1(c2cccc(C)c2)C(=O)N(C(=O)OC)N1C(=O)OC

Ordered by length of the SMILES (descending): some entries from above.
SMILES	VDR inh
N=C1/C(=C\c2ccc(-c3cccc(C(=O)O)c3)o2)C(=O)N=C2SC=C(c3ccccc3)N12	-15%
CCn1cnc2c1c(=O)n(CC(=O)N1CCc3ccccc31)c(=O)n2Cc1ccccc1	-3%
Cc1c(C(=O)N2c3ccccc3Sc3ccccc32)cccc1[N+](=O)[O-]	2%
CCOC(=O)c1cccc(NS(=O)(=O)c2cn(C)c(C)n2)c1	13%
CC(=O)Oc1ccc(C(=O)c2ccccc2)c(OC(C)=O)c1	-15%
O=C1CCCc2c1nc(-c1ccco1)n2O	4%
CC(C)Oc1ccc2nnnn2n1	0%

Remaining list, next part
SMILES	VDR inh
CCN1CCN(CC(=O)Nc2sc3c(c2C#N)CCC(C)C3)CC1 (stereo not given)	12%
Cc1ccccc1S(=O)(=O)N(CC(O)CN1C(=O)NC(C)(C)C1=O)c1ccccc1 (stereo not given)	-6%
COc1ccc(C(=O)c2cn[nH]c2-c2cc(C)ccc2O)cc1	-17%
O=C(CN(C1CCCCC1)S(=O)(=O)c1ccc(F)cc1)NC1CC1	-1%
CC1(C)CC(CC(=O)O)C(=O)O1 (stereo not given)	0%
NC(=O)CS(=O)(=O)c1nc2ccccc2n1Cc1ccccc1F	?
N=c1c(C(=O)NC2CCCC2)cc2c(=O)n3ccccc3nc2n1Cc1ccccc1	-2%
CCOC(=O)c1c(NC(=O)CSc2cn(CCNC(=O)c3ccc(OCC)cc3)c3ccccc23)sc2c1CCCC2	-1%
COc1cc(C(C(=O)NC2CCCCC2)N(C(=O)c2cnccn2)c2ccccc2)cc(OC)c1OC (stereo not given)	-7%
Cc1ccc(C(=O)CCC(=O)OCC(=O)Nc2nnc(-c3ccccc3)o2)cc1	-9%
COC(=O)c1cccc(NC(=O)CN2CCN(Cc3ccccc3)CC2)c1	3%
Clc1cccc(CNc2ncnc3c2nc2n3CCCC2)c1	12%
CCc1ccccc1Nc1nc2ccccc2n1C	15%
Cc1cc(=O)oc2cc(OCc3ccc(C(=O)OCC(=O)N(C)C4CCS(=O)(=O)C4)cc3)ccc12 (stereo not given)	-10%
Nc1nc(NCCCN2CCOCC2)nc(NCc2ccccc2)c1[N+](=O)[O-]	15%
Cc1sc2nc(C3CC3)nc(NCCNS(C)(=O)=O)c2c1C	-2%
COc1ccc(O)c(CN2CCCC(N3CCN(c4ccccc4OC)CC3)C2)c1 (stereo not given)	-8%
O=C(O)CSCC(=O)Nc1ccc(C2CCCCC2)cc1	-13%
O=C(Nc1ccc(OC(F)F)c(Cl)c1)c1ccccn1	-14%
COc1cccc(CNC(=S)Nc2cc(C)cc(C)c2)c1	5%
C[C@H](NC(=O)c1nc[nH]c1C(=O)NCC(=O)OC(C)(C)C)c1ccccc1	-7%
C=CCNc1nc(C2(C)CC3(CC(C)OC3=O)C(=O)O2)cs1 (stereo not given)	7%
O=C(CCNC(=O)c1ccc(Cl)cc1)NN1C(=O)NC2(CCCCC2)C1=O	4%
O=C(CSc1nnc(-c2ccccc2)o1)c1nnc(-c2ccccc2)o1	13%
COC(=O)C1=CN(C(C)c2ccccc2)C=C(C(=O)OC)C1c1cc(OC)c(OC)c(OC)c1 (stereo not given)	-18%
CN(C)c1ccc(O)c2c1CC1CC3C(N(C)C)C(=O)C(C(N)=O)=C(O)[C@@]3(O)C(=O)C1=C2O (stereo not given in full)	18%
CN(C)CCCN(Cc1ccccc1)C(=S)NCc1ccccc1	-3%

From PubChem BioAssay
